# Screening data from PubChem BioAssay.
# RanGTP-Impb inh = inhibitors of RanGTP-importin-beta interaction, primary screen, biochemical, FRET, CFP-Ran, YFP-importin-beta, homogeneous; Ran GTPase (GTP-bound) - importin-beta complex; inhibition, % (concentration not given with the values); AID 2216, 2009; cell-free CFP-Ran/YFP-importin-beta FRET ratio; 300,000 tested, 1.1% active;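 active = most replicates above 15%; inconclusive = exactly half above 15%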;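 note: 0% = DMSO wells and 100% = Ran loaded with GDP instead of GTP; wells of about 40 µL received 100 nL stock; the first replicate is given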
# MLL AF4-AF9 inh = inhibitors of AF4 peptide binding to AF9, primary screen, biochemical, AlphaScreen, biotin-AF4 peptide, FLAG-AF9, single point; inhibition, % at 10 µM; AID 651704, 2012; 350,000 tested, 0.47% active;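 active = every replicate reaching a set inhibition limit, whatever the replicate mean, cut at about 25% in these data; inconclusive = mean inhibition reaches that limit but some replicates miss it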;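 note: 0% = plate neutral control median and 100% = total signal loss; the record names both 10 and 1 µM as test concentration; the first replicate is given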
# Target sequence (P42568 whole entry, looked up): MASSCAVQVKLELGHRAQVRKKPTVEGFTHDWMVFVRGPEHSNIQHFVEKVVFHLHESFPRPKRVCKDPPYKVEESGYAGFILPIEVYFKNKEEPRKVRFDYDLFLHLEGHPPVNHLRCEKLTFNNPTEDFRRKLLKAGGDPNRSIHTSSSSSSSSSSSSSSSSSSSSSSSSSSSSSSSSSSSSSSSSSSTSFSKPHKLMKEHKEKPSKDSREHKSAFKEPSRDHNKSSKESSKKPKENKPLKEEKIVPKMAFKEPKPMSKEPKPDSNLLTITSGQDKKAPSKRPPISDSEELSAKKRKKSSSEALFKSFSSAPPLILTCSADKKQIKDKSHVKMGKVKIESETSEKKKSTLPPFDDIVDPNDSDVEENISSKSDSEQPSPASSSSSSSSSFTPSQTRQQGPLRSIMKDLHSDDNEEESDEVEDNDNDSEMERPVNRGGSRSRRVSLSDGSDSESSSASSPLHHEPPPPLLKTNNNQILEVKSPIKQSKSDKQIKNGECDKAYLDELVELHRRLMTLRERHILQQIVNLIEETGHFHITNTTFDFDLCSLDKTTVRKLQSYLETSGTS
# FGF22 binding = binders of human FGF22 protein, primary screen, FGF22 synaptogenesis inhibitor project, biophysical, thermal shift, single point. Fibroblast growth factor 22 (Homo sapiens), Q9HCT0. recombinant FGF22 thermal shift, SYPRO orange fluorescence; percent of sucrose octasulfate shift, DMSO zero. calls only at 9.99 µM. 340,000 tested, 1.5% active;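 active = melting point raised past a set limit in the mean and every replicate; inconclusive = no clear call; three in four hits are not shown here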
# Target sequence (Q9HCT0 whole entry, looked up): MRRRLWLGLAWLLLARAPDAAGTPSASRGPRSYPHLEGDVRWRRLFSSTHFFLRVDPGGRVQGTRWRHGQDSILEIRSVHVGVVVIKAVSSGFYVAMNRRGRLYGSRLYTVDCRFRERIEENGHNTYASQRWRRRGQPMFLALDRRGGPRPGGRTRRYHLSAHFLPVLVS
# Beta cell apopt = inhibitors of cytokine-induced beta cell apoptosis, primary screen, luminescence; 300,000 tested, 0.8% active; INS-1E cytokine-induced death, ATP luminescence, 48 h; percent of positive-control rescue, neutral wells zero; protection from apoptosis, % (concentration not given with the values);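 active = all replicates at 75% or more, or half of them and the mean; inconclusive = half reach 75% but not the mean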;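 note: 0% = cytokine-treated negative control wells and 100% = positive control rescue; higher means more ATP so stronger rescue from cytokine killing; wells of about 40 µL received 100 nL stock; the first replicate is given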
# rRNA inh HTS = reduced GFP signal of wild-type E. coli, primary screen, bacterial rRNA inhibitor project, GFP/RFP fluorescence, OD600, single point. E. coli WT GFP vs humanized-ribosome RFP mutants, 24 h; stronger effect = lower value; DMSO median 0, no signal -100. GFP signal change (wild-type ribosome), % (no concentration beside the values). 350,000 tested, 1.6% active. AID 720706, 2013;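 active = significant combined selectivity score with lowered wild-type GFP, culture density cut under 30%, mutant RFP and density less affected; inactive = any of these conditions unmet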; note: one replicate is shown; some compounds called inactive have numbers as strong as hits
# T cruzi inh = inhibitors of intracellular T. cruzi growth, primary screen, luminescence, NIH3T3 host cells. inhibition, % (no concentration beside the values). T. cruzi beta-gal in NIH3T3, 90 h. 300,000 tested, 1.4% active;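 active = mean inhibition across valid replicates above about 55%, limit read from the data; inconclusive = mean below that limit but half or more replicates reach it; inactive = mean below it, under half of replicates reach it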;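 note: signal also drops with host cell toxicity which is not excluded here; 0% = plate median of DMSO wells and 100% = zero luminescence signal; higher percent means less beta-gal luminescence so fewer parasites; stock transfer was 50 nL into about 50 µL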
# ALR inh = inhibitors of human ALR sulfhydryl oxidase, primary screen, biochemical, H2O2 detection, HRP-luminol luminescence, single point; 290,000 tested, 3.8% active; purified ALR, DTT oxidation; FAD-linked sulfhydryl oxidase ALR (Homo sapiens), P55789; inhibition, % (no concentration beside the values);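 active = mean and each replicate at 75% or more; inconclusive = only one of the two met; inactive = neither met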;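 note: stock transfer was 7.5 nL into about 7.5 µL; 0% = neutral wells and 100% = wells with inactivated enzyme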
# Target sequence (P55789 whole entry, looked up): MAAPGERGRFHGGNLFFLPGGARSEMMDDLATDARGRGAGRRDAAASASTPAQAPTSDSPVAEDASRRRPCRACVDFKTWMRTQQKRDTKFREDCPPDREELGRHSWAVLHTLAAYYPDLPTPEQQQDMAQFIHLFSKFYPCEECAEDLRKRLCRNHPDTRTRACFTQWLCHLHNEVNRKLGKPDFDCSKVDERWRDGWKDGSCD
# Calb FLC = C. albicans growth inhibition with fluconazole, primary screen, CaCi-2 strain, Alamar Blue fluorescence | 300,000 tested, 0.57% active | growth inhibition, % (no concentration beside the values) | AID 1979, 2009 | C. albicans CaCi-2 (fluconazole-resistant clinical isolate) + fluconazole, 48 h;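 active = most replicates above 75%; inconclusive = exactly half above 75%; inactive = most below 75%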;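 note: all wells also contain fluconazole at 8 µg/ml as a sub-toxic cotreatment; 0% = median of DMSO wells and 100% = median of geldanamycin control wells; wells of about 8 µL received 7.5 nL stock; the first replicate is given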
# rRNA inh HTS OD600 = recorded beside rRNA inh HTS, whose call it bears; OD600 change, %; measured here: OD600 growth;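 optical density of the mix in the first replicate; 0 = DMSO median and -100 = no signal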
# rRNA inh HTS RFP = further read-out of rRNA inh HTS, marked with its call; RFP signal change, %; measured here: RFP humanized mutant strains;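 first replicate; 0 = DMSO median and -100 = no signal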
# * hit, by the source's call; i = inactive; ? = inconclusive; . = no result given.
Structure	FGF22 binding	Calb FLC	RanGTP-Impb inh	rRNA inh HTS RFP	rRNA inh HTS	MLL AF4-AF9 inh	ALR inh	Beta cell apopt	T cruzi inh	rRNA inh HTS OD600
Cc1nn(-c2ccc(N3CCOCC3)nn2)c(C)c1CCC(=O)NCc1ccccc1	i	11	3.9	-1.9	2	1.5	-1	.	2	-1
COc1ccc(Cl)cc1C(=O)NC1=NCCS1	i	-5	4.0	-0.9	-1	-3.7	-11	.	-12	3
CCn1cc(CNC(=O)CCc2nnc(CCC3CCCCC3)o2)cn1	i	3	-1.2	0.0	0	-0.8	-3	-4	-14	-3
c1ccc(-c2cnc(CSc3nnc4ccccn34)o2)cc1	.	1	0.9	.	.	.	7	1	-7	.
C=CCNC(=O)c1snnc1-c1ccccc1	.	-8	1.1	.	.	.	.	1	-3	.
CC1(C)N=C(SCC(=O)Nc2ccc(Cl)cc2Cl)C(c2ccccc2)=N1	.	8	6.6	.	.	.	.	-7	6	.
Cc1c(C(=O)Nc2ccc(Cl)cn2)oc2ccccc12	.	11	1.1	.	.	.	.	-4	-24	.
Cn1cccc1/C=C(/C#N)c1ccc(F)cc1	i	-37	4.3	0.3	-9	12	-4	1	-11	-8
N#Cc1c(-n2ccnc2)cccc1-n1ccnc1	.	-1	-1.4	.	.	.	-9	-9	-21	.
CCOc1ccc2c(c1)c(N=NC(=N)N)c(O)n2C	i	-1	?	.	.	1.4	.	-9	-22	.
CC1CCCN(C(=O)C(C)Nc2cc(Cl)ccc2N2CCOCC2)C1 (stereo not drawn)	i	7	-2.6	5.6*	-29*	21	58	0	25	-25*
CC(C(=O)NCc1ccco1)n1ccc2cc(S(=O)(=O)N3CCCCC3)ccc21 (stereo not drawn)	i	-9	4.0	2.5	-3	1.2	0	1	8	-7
CC(=O)OCCSc1c(-c2ccccc2)c2cc(Cl)ccc2[nH]c1=O	.	36	-0.7	.	.	.	14	-3	-1	.
CC(C)(C)C(=O)c1sc2nc(-c3cccs3)cc(C(F)(F)F)c2c1N	.	0	-42	.	.	.	30	-3	-28	.
N#C/C(=C(/O)c1ccc(F)cc1)c1nc2ccccc2s1	i	52	-1.0	2.9	-4	-2.2	-2	14	54	-7
CCC(NC(=S)NCc1ccc(F)cc1)c1ccccc1 (stereo not drawn)	i	-14	-2.1	11	-20	-2.0	4	-3	-15	-58
Cc1ccc(OCc2ccc(C(=O)Nc3nc4ccccc4n3C)o2)c([N+](=O)[O-])c1	i	32	-0.4	6.4	-2	-14	4	4	2	-1
N#Cc1cc(-c2ccccc2)nnc1Sc1ccc(Cl)cc1	.	-10	4.3	.	.	.	.	-7	-5	.
Cc1ccc(/C=N/NC(=S)NC2CCCCC2)o1	i	-2	-1.1	4.7	6	12	20	-3	-18	1
CCCCC(=O)Nc1nnc(SCC(=O)NC2CC2)s1	i	-7	-2.1	-1.0	9	2.0	-2	.	11	15
CC1(C)OC2OC(COC(=O)c3ccc([N+](=O)[O-])cc3)C3OC(C)(C)OC3C2O1 (stereo not drawn)	.	3	-0.2	.	.	.	-24	-4	-6	.
O=C(NCCCn1ccnc1)C(=O)NCC1OCCN1S(=O)(=O)c1ccc(Br)cc1 (stereo not drawn)	i	7	-2.1	-0.3	8	-0.7	-5	2	-7	6
O=C(CN1C(=O)/C(=C\c2cccc(Br)c2)Oc2ccccc21)NCCCN1CCOCC1	i	23	2.1	-0.4	8	-0.6	0	.	31	10
O=C(O)c1cc2nc(-c3ccccc3)cc(C(F)(F)F)n2n1	.	-6	3.1	.	.	.	-8	.	-3	.
CCOC(=O)N1C=CC=C[C@@H]2[C@@H](N3C(=O)c4ccccc4C3=O)C(=O)N21	i	14	-0.4	-5.6	14	1.0	0	-6	4	1
Cc1ccc(C)c(C(=O)COC(=O)CN2C(=O)C3C4C=CC(C4)C3C2=O)c1 (stereo not drawn)	i	2	-1.9	2.1	-1	-0.1	-1	-4	-6	0
C[C@@H](OC(=O)c1[nH]cnc1C(=O)N1CCc2ccccc2C1)c1ccccc1	i	.	.	-10	-15	5.9	0	3	.	-6
Cc1ccc(C(=O)CCS(=O)(=O)c2ccc(F)cc2)cc1	i	-4	3.3	-2.1	2	0.0	15	-17	43	-7
COc1ccc(NS(=O)(=O)c2cc(NC(=O)c3cnc(C)cn3)ccc2N2CCCC2)cc1	.	6	5.3	.	.	.	-15	1	23	.
COCCNc1ccc(S(=O)(=O)N2CCCC2)cn1	i	3	0.1	-1.4	18	0.3	-3	.	-10	10
C#CCOCCOCCOCCNc1nc(N2CCN(C(=O)[C@H]([C@@H](C)CC)n3cc(CCCCN)nn3)CC2)nc(N2CCN(C(=O)[C@H](CCCCN)n3cc(CCCC)nn3)CC2)n1	i	.	.	21	-7	13	-1	-1	.	-4
Cc1cc(Br)ccc1S(=O)(=O)n1ccnc1C	i	-11	-3.7	-1.0	15	-0.8	0	-3	-10	24
COc1ccc(C2C(C(=O)c3ccccc3)=C(C)Nc3nc4ccccc4n32)cc1OC (stereo not drawn)	i	4	-2.4	-0.6	4	-0.5	-14	.	?	5
Cc1cc(C)nc(SCC(=O)Nc2cccc(S(=O)(=O)N(C)C)c2)n1	i	8	-2.9	1.7	12	1.1	-2	8	-19	4
Cc1snc(SCc2ccc(F)cc2)c1C#N	i	49	5.6	-0.5	-9	-5.5	-2	-18	-20	-13
O=C(CSc1ncnc2c1oc1ccccc12)Nc1ccccc1F	i	-4	4.4	-2.9	0	-0.4	2	-3	-9	17
O=C(COc1ncnc2ccccc12)Nc1cc([N+](=O)[O-])ccc1Cl	i	-11	-1.5	-0.2	8	-6.9	0	-3	19	14
Brc1ccc(-c2csc(/N=C/N3CCCC3)n2)cc1	i	?	-1.0	-4.0	-12	0.8	-8	-9	3	-15
Cc1ccccc1CN1CCN(C/C=C/c2ccccc2)CC1	.	-6	-1.9	.	.	.	0	-5	21	.
COc1cc(/C=C2/C(=N)N3C(c4ccccc4)=CSC3=NC2=O)ccc1OCC(=O)O	i	-8	3.6	0.2	-2	-4.1	99*	-1	-5	3
CC(=O)NN=C1CCC(c2ccccc2)CC1 (stereo not drawn)	.	2	0.9	.	.	.	-12	0	8	.
COc1ccc(N2CCN(C(c3cccs3)C(C)NC(=O)C(=O)N3CCOCC3)CC2)cc1 (stereo not drawn)	i	-6	2.7	-4.9	-5	0.4	?	-3	-2	0
Cc1cccc(C)c1OCc1nc2ccccc2c(=O)n1/N=C/c1ccc(OCC(=O)O)cc1	.	8	4.2	.	.	.	6	.	-5	.
Cc1ccc(CN2CCN(Cc3ccccc3C(F)(F)F)CC2)cc1	.	-13	?	.	.	.	2	-20	11	.
COc1ccc(C(=O)COc2ccccc2C(=O)Nc2ccccc2)cc1	i	21	2.9	-1.9	4	-0.4	.	28	24	10
COc1cccc(CNC(=O)c2ccccc2-c2ccccc2)c1	i	-15	-0.5	5.3	20	-0.6	2	1	2	20
O=C(NC(=S)Nc1ccc(N2CCCCC2)cc1)c1ccco1	i	6	-0.6	13	-3	0.6	.	.	23	-11
Nc1nc(N)c(N=Nc2ccc(S(N)(=O)=O)cc2)c(=O)[nH]1	i	-1	2.0	1.4	0	-11	-3	-16	-3	14

# Reformatted: entries from further up
> COc1cc(/C=C2/C(=N)N3C(c4ccccc4)=CSC3=NC2=O)ccc1OCC(=O)O
  FGF22 binding: i	Calb FLC: -8	RanGTP-Impb inh: 3.6	rRNA inh HTS RFP: 0.2	rRNA inh HTS: -2	MLL AF4-AF9 inh: -4.1	ALR inh: 99*	Beta cell apopt: -1	T cruzi inh: -5	rRNA inh HTS OD600: 3

> CC(=O)NN=C1CCC(c2ccccc2)CC1 (stereo not drawn)
  FGF22 binding: .	Calb FLC: 2	RanGTP-Impb inh: 0.9	rRNA inh HTS RFP: .	rRNA inh HTS: .	MLL AF4-AF9 inh: .	ALR inh: -12	Beta cell apopt: 0	T cruzi inh: 8	rRNA inh HTS OD600: .

> COc1ccc(N2CCN(C(c3cccs3)C(C)NC(=O)C(=O)N3CCOCC3)CC2)cc1 (stereo not drawn)
  FGF22 binding: i	Calb FLC: -6	RanGTP-Impb inh: 2.7	rRNA inh HTS RFP: -4.9	rRNA inh HTS: -5	MLL AF4-AF9 inh: 0.4	ALR inh: ?	Beta cell apopt: -3	T cruzi inh: -2	rRNA inh HTS OD600: 0

# The listing continues:
Structure	FGF22 binding	Calb FLC	RanGTP-Impb inh	rRNA inh HTS RFP	rRNA inh HTS	MLL AF4-AF9 inh	ALR inh	Beta cell apopt	T cruzi inh	rRNA inh HTS OD600
Cc1cccc(NC(=S)N2N=CCC2c2ccccc2)c1 (stereo not drawn)	.	9	0.3	-2.6*	-23*	.	0	-3	-17	-13*
COCc1cc(C)nc2sc(C(=O)N3CCCCC3)c(N)c12	.	-19	1.0	.	.	.	7	-4	.	.
CCc1ccc(N(C2C=CS(=O)(=O)C2)S(=O)(=O)c2ccc(C)cc2)cc1 (stereo not drawn)	i	-1	-1.6	-1.9	-2	5.9	.	-2	21	-3
COc1cc(OC)cc(C(=O)NC2CCN(Cc3nnnn3Cc3ccc(F)cc3)CC2)c1	i	116*	-1.7	0.2	-1	-0.9	3	-3	9	-5
CCc1nnc(NC(=O)c2cc(-c3ccccn3)nc3ccc(Br)cc23)s1	i	0	-0.3	-0.2	2	-6.9	-1	-4	-4	6
Cc1nn(CC(C)C)c2sc(C(=O)NC3CC(C)(C)NC(C)(C)C3)cc12	i	-3	-1.6	-0.2	3	4.5	-34	-2	23	0
CCC(c1nnnn1C(C)(C)C)N1CCN(C2CCCC2)CC1 (stereo not drawn)	.	-3	4.8	.	.	.	-2	.	-8	.
O=C(COC(=O)/C=C/c1ccc(S(=O)(=O)N2CCOCC2)cc1)Nc1ccc(F)c(F)c1F	i	.	.	-0.8	7	-1.8	.	4	.	5
C=C1CCC[C@]2(C)C[C@H]3OC(=O)C(CNCCN(CC)CC)[C@H]3CC12 (stereo partly drawn)	i	-3	3.2	-1.4	7	-0.4	3	-14	6	9
Cc1ccc2c(c1)CCCN2C(=O)NC1CCCCC1	i	-22	1.5	4.5	8	-5.7	8	-10	7	4
COc1ccc(CCNC(=O)/C(=C/c2cccnc2)NC(=O)c2ccccc2)cc1	i	-12	1.2	9.0	5	1.8	1	-1	-8	15

# As a short view, part of the list above.
Structure	FGF22 binding	Calb FLC	RanGTP-Impb inh	rRNA inh HTS RFP	rRNA inh HTS	MLL AF4-AF9 inh	ALR inh	Beta cell apopt	T cruzi inh	rRNA inh HTS OD600
Cc1ccc2c(c1)CCCN2C(=O)NC1CCCCC1	i	-22	1.5	4.5	8	-5.7	8	-10	7	4
COc1ccc(CCNC(=O)/C(=C/c2cccnc2)NC(=O)c2ccccc2)cc1	i	-12	1.2	9.0	5	1.8	1	-1	-8	15

# An excerpt; rates above refer to the full screens.
